From PubChem
Hsc70 ATP site – small molecules displacing fluorescent ligand from Hsc70 – biochemical, fluorescence polarization, primary screen (AID 568) | Hsc70 fluorescence polarization, probe displacement; higher % means a stronger effect; strong numbers were not always called active | one-dose displacement, % at 20 µM; IC50 in µM for titrated hits | 83,000 tested, under 10 active;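 active = displacement above 50% without optical interference and an IC50 on retest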;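 also: ATPase domain with a fluorescein-tagged ATP probe; 0% = vehicle and 100% = excess ADP; read after one hour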
WNV NS2B-NS3 inh – WNV NS2B-NS3 proteinase inhibition. AID 577. z-score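 (tested at a level between 10 and 100 µM)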. actives 0.18% (n = 65,000). WNV NS2B-NS3 protease, fluorogenic substrate Ex360/Em465; hits give low values;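 active = z-score at -3 or under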;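 also: score is relative to mean and spread of the compound wells of a plate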
Target sequence (P06935 1371-1501 limits assumed): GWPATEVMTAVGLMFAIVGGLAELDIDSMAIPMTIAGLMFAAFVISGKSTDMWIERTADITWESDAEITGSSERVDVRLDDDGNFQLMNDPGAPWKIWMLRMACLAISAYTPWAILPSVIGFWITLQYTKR
Target sequence (P06935 1502-1679 limits assumed): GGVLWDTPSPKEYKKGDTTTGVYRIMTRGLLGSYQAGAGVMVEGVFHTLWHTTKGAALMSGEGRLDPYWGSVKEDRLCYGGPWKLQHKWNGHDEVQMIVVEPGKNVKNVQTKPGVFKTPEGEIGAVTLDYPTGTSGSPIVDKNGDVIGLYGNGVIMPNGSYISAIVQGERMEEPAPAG
MT1-MMP reporter – inhibitors of MT1-MMP promoter transcription, cell-based, luciferase reporter, luminescence (AID 618); calls from a first round at 10 µM; hits with a dose series show EC50 in µM; actives 0.62% (n = 87,000); MT1-MMP promoter luciferase reporter cells, luminescence;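 active = over half of the reporter light lost at 10 µM or EC50 under 50 µM; inactive = the rest and hits that failed the dose series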;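 also: actives suppress MT1-MMP promoter-driven transcription so potencies describe inhibitors; HT1080 fibrosarcoma cells; overnight exposure; toxic or luciferase-blocking compounds were not removed from the actives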
Numbers without * were called inactive; i = inactive; . = no result given.

SMILES	Hsc70 ATP site	WNV NS2B-NS3 inh	MT1-MMP reporter
CCCCOP(=O)(OCCCC)/C(C#N)=C(/C)O	0.7%	.	i
CC(=O)NC1CC2CCCC(C1)N2 (stereo not given)	-0.4%	0.58	i
O=C1NC(=O)C(CCc2ccccn2)(Cc2ccc3c(c2)OCO3)C(=O)N1CCc1ccccc1 (stereo not given)	-0.4%	.	i
CCCC[N+]12CCC(CC1)C(C(=O)c1cccs1)C2 (stereo not given)	-4.0%	.	i
CCN(CC)C(=O)c1ccc(NC(=O)c2cc(-n3cnnc3)ccc2Cl)cc1	-9.7%	0.4	i
Cc1ccc(S(=O)(=O)N2CC3CC(C2)c2cccc(=O)n2C3)cc1 (stereo not given)	5.1%	.	i
N/C(=N\N=C\c1ccc(O)cc1O)N[N+](=O)[O-]	3.6%	.	i
C=CCN1C(=O)C2(C(C(=O)OCC)=C(N)Oc3ccccc32)C2=C1CCCC2=O (stereo not given)	5.1%	-1.2	i
COC(=O)c1cc(C(O)(C(=O)OC)C(F)(F)F)c(/N=C/N(C)C)s1 (stereo not given)	1.8%	-0.07	i
O=C(NC1(C(F)(F)F)Oc2ccccc2O1)N1CCC2(CC1)OCCO2	0.3%	.	i
Cc1cc(Cl)ccc1OCC(=O)N1CCN(C)CC1	76%	2.5	i
CCCCn1c(O)c(C(CC)=Nc2ccc(OC)cc2OC)c(=O)[nH]c1=O	0.7%	.	i
COC(=O)C(O)(c1c(C)[nH]n(-c2ccccc2)c1=O)C(F)(F)F (stereo not given)	-3.6%	-0.04	i
COCCNC(=O)c1c(N)n(CCC(C)C)c2nc3ccccc3nc12	0.7%	.	i
CCC(=NCC1CCCO1)c1c(O)[nH]c(=O)[nH]c1=O (stereo not given)	-5.8%	0.95	i
CC(=NCc1cccnc1)c1c(O)n(-c2ccccc2)c(=O)[nH]c1=O	7.4%	.	i
N[C@@H](Cc1c[nH]c2ccccc12)c1nnc(SCc2ccc(Cl)cc2)o1	-5.1%	1.1	i
CCCCn1c(O)c(C(C)=Nc2ccc(OCC)cc2)c(=O)[nH]c1=O	-1.6%	0.85	i
CN(C=O)CP(=O)(O)CN(C)C=O	-4.9%	-1	i
CCCCNC(=O)c1c(N)n(Cc2ccc3c(c2)OCO3)c2nc3ccccc3nc12	-9.2%	.	i
CCOP(=S)(OCC)SCC(=O)NC(C(=O)O)C(C)C (stereo not given)	-0.2%	.	i
Cc1nn(C)cc1/C=C1/CC2C3CC=C4CC(O)CCC4(C)C3CCC2(C)C1=O (stereo not given)	-1.6%	.	i
COc1ccc2c(c1)CC1(CN2C)C(=O)NC(=O)N(c2ccc(C)cc2)C1=O (stereo not given)	-4.2%	-0.68	i
CCCc1nc2ccccc2c(=O)n1-c1cccc(OC)c1	33%	-0.9	i
N#Cc1ccc(Cn2cc(C(=O)c3ccco3)c3ccccc32)cc1	-4.3%	.	i
Following part:
SMILES	Hsc70 ATP site	WNV NS2B-NS3 inh	MT1-MMP reporter
NC(=O)OCCSc1nnc(-c2cccc(C(N)=S)c2)o1	1.1%	-0.41	i
CCn1c(O)c(C=NCc2cccs2)c(=O)[nH]c1=O	5.2%	-0.67	i
Cc1ccc(O)c(CN2CCN(c3ccccc3)CC2)c1	-5.9%	-0.71	i
O=C(Nc1ccc(F)cc1)N1CC2CC(C1)c1cccc(=O)n1C2 (stereo not given)	-9.7%	.	i
COc1ccc(C=C2C(=O)N(C)C(=O)N(C)C2=O)cc1CSc1ccccn1	2.5%	.	i
Cc1cccc(-n2c(C)nc3cc(C(=O)N4CCC5(CC4)OCCO5)ccc32)c1	5.7%	0.18	i
CC1(C)C2CC=C(CN3CCC(O)CC3)C1C2 (stereo not given)	-0.9%	-0.19	i
COc1ccc(Cn2c(O)c(C=NCCN3CCOCC3)c(=O)[nH]c2=O)cc1	0.5%	0.25	i
CCCCCn1c(=O)c(C(=O)Nc2ccncc2)c(O)c2ccccc21	3.0%	-0.38	i
COc1ccc(CC2C(=O)NC(=O)NC2=O)c(OC)c1	-3.8%	-0.29	i
CC(C)(C)NC(=O)Cn1cc(C(=O)c2ccccc2F)c2ccccc21	-2.2%	.	i
O=C(c1ccc2c(c1)ncn2C1CCCCCC1)N1CCC2(CC1)OCCO2	-1.3%	0.99	i
Cn1c(O)c(C=NC2CC3CCC2(C)C3(C)C)c(=O)[nH]c1=O (stereo not given)	-4.8%	-0.69	i
CN(C)c1nc(-c2ccccc2)[n+](C)s1	0.5%	-0.78	i
CCN(CC)S(=O)(=O)c1ccc(N=Cc2c(O)n(-c3ccccc3)c(=O)[nH]c2=O)cc1	-3.4%	-1.4	i
CC1CCC(NCCc2ccc3c(c2)OCO3)CC1 (stereo not given)	-7.7%	0.92	i
COc1ccc(C2C(C(=O)N3CCC4(CC3)OCCO4)CC(=O)N2c2ccc(OC)cc2)cc1 (stereo not given)	-3.9%	-0.38	i
COc1cc(OC)c(OC)cc1CNCCc1ccc(OC)c(OC)c1	0.3%	0.63	i
CCN(CC)Cc1c[nH]c2ccccc12	-3.5%	-0.17	i
C=CCOC(=O)C1=C(C)OC(N)=C(C#N)C12C(=O)N(CN1CCOCC1)c1ccccc12 (stereo not given)	-0.7%	-1	i
CN1C2CCC1CC(OC(=O)c1ccc(Cl)cc1)C2 (stereo not given)	1.3%	-0.65	i
CCCNS(=O)(=O)c1ccc(OCC(=O)N2CCN(Cc3ccccc3)CC2)cc1	3.9%	0.0028	i
CC(=Nc1c(C)n(C)n(-c2ccccc2)c1=O)c1c(O)n(Cc2ccccc2)c(=O)[nH]c1=O	0.5%	.	i
Cc1cc(C)n2c(Br)c(CN3CC4CC(C3)c3cccc(=O)n3C4)nc2n1 (stereo not given)	6.9%	-0.28	i
O=C1CCCC2=C1C(c1cccnc1)Nc1ccccc1N2 (stereo not given)	-2.1%	-0.24	i
Next records follow:
SMILES	Hsc70 ATP site	WNV NS2B-NS3 inh	MT1-MMP reporter
CCCC(C)C1(CC)C(=O)NC(=Nc2ccccc2)NC1=O (stereo not given)	-1.2%	.	i
OC1(c2ccc(F)cc2)CC2CCC(C1)N2Cc1nnnn1C1CCCC1 (stereo not given)	-7.2%	-1.3	i
Cc1ccccc1OCCN=Cc1c(O)n(C)c(=O)n(C)c1=O	-2.2%	.	i
Nc1ccccc1C(=O)OCC(=O)N1CCc2ccccc21	-2.1%	.	i
COP(=O)(OC)C1(Nc2ccc(C)cc2)CCCCC1	-0.4%	.	i
CN1CCN(c2nc3ccccc3c(=O)n2-c2ccccc2)CC1	5.8%	-0.48	i
CCOC(=O)c1c(C)n(Cc2ccco2)c2ccc(OC)cc12	4.9%	0.9	i
CN(C)CCc1nc2ccccc2c(=O)n1-c1ccccc1	0.8%	0.79	i
CCCC12CN3CC(CCC)(CN(C1)C3c1ccccn1)C2=O (stereo not given)	-1.1%	.	i
COc1cc2c3c(c1OC)-c1cc(O)ccc1CC3NCC2 (stereo not given)	1.9%	-1.4	i
Cc1nn(-c2ccccc2)c2c1CC1(C(=O)N(C)C(=O)N(C)C1=O)C1CCCCN21 (stereo not given)	3.5%	0.46	i
CC1=CC(C)C(COC(N)=O)(COC(N)=O)C(C)C1 (stereo not given)	4.9%	1.4	i
CN(C)Cc1ccccc1OC(=O)N(C)C	-3.4%	.	i
Cc1ccc(S(=O)(=O)N(C)CCCC(=O)N2CCN(c3ccccn3)CC2)cc1	0.0%	-0.24	i
COCCCn1c(N)c(C(=O)OC(C)COC)c2nc3ccccc3nc21 (stereo not given)	-2.0%	2.3	i
CCCCn1c(=O)c(C(=O)Nc2cnccn2)c(O)c2ccccc21	0.9%	-0.55	i
N[C@@H](Cc1c[nH]c2ccccc12)c1nnc(SCc2ccccc2)o1	-7.7%	0.06	i
Cc1cc(C)c(C2=NOC(O)(C(F)(F)F)C2)c(=O)[nH]1 (stereo not given)	5.8%	0.89	i
COc1ccc(C(CC(=O)N2CCC3(CC2)OCCO3)NS(=O)(=O)c2ccc(OC)cc2)cc1 (stereo not given)	-5.4%	2.4	i
FC(F)(F)c1ccc2c(c1)ncn2C1CCN(Cc2nnnn2C2CCCCC2)CC1	-1.2%	2.2	i
O=c1[nH]c(=O)n(CCc2ccccc2)c(O)c1C=NCc1ccc2c(c1)OCO2	0.7%	.	i
O=C(c1cc(Br)ccc1Cl)N1CCC2(CC1)OCCO2	-4.6%	1.1	i
O=C1NC(=O)C(CCc2ccncc2)(c2ccccc2)C(=O)N1	-1.0%	-1	i
CC[N+](CC)(CC)CCCCCCCCCC[N+](CC)(CC)CC	2.6%	.	i
O=P(O)(O)C#Cc1ccccc1	-1.8%	-0.1	i
New compounds follow:
SMILES	Hsc70 ATP site	WNV NS2B-NS3 inh	MT1-MMP reporter
CN(C)c1ccc2c(c1)N=C(c1ccco1)OP2(=S)N1CCOCC1 (stereo not given)	2.2%	-0.1	i
CC(=NCc1ccc(F)cc1)c1c(O)n(C)c(=O)n(C)c1=O	2.5%	1.3	i
O=C(Cn1cnc2ccccc2c1=O)NCCC(=O)N1CCC2(CC1)OCCO2	-0.8%	.	i
CC(Cc1ccccc1)[n+]1cc(/N=C(\[O-])Nc2ccccc2)on1 (stereo not given)	5.5%	.	i
Cc1ccc(Cn2nnnc2CN2CCC(n3nnc4ccccc43)CC2)cc1	-3.9%	-0.58	i
COc1ccc2c(c1)CC1(CN2C)C(=O)NC(=O)N(c2ccc(F)cc2)C1=O (stereo not given)	1.2%	-0.82	i
CC1(C)COC(Nc2cccc(Cl)c2)=N1	4.4%	.	i
CCCCCCn1c(=O)c(C(=O)Nc2ccncc2)c(O)c2ccccc21	3.7%	-1.3	i
CCCCN1CCC(C#N)(Nc2ccccc2)CC1	5.1%	0.03	i
CCOC(=O)C1=C(C)OC(N)=C(C#N)C12C(=O)Nc1ccc(C)cc12 (stereo not given)	2.1%	-0.58	i
CCC(C)NC(=O)c1c(N)n(Cc2ccc3c(c2)OCO3)c2nc3ccccc3nc12 (stereo not given)	-13%	-0.46	i
COc1ccccc1-n1c(O)c(C=Nc2c(C)n(C)n(-c3ccccc3)c2=O)c(=O)[nH]c1=O	-1.2%	-2.6	i
O=c1[nH]c(=O)n(CCC2=CCCCC2)c(O)c1C=NCc1cccnc1	7.7%	-1.1	i
O=C1C2CCN(CC2)C1Cc1ccc(OCCOc2ccccc2)cc1 (stereo not given)	1.9%	-0.8	i
CCC(COC(=O)NC)NC(=O)Oc1ccccc1 (stereo not given)	1.6%	.	i
COc1ccc(CCn2c(O)c(C=NCCCN(C)C)c(=O)[nH]c2=O)cc1OC	2.2%	-0.06	i
C#CCN(C)C(C)Cc1ccccc1 (stereo not given)	1.0%	-1.2	i
CC1CN=C(NCc2ccccc2)S1 (stereo not given)	1.4%	.	i
COc1ccc(-n2c(=O)[nH]c3ccccc3c2=O)c(OC)c1	-0.3%	-0.49	i
CC1CC2(O)c3nonc3CCC2N1O (stereo not given)	5.1%	-0.11	i
CCCCn1c(O)c(C=NC2CCCCC2N)c(=O)[nH]c1=O (stereo not given)	0.9%	-0.35	i
Cc1ccc2c(c1)C1CN(C)CCC1N2C(=O)c1ccco1 (stereo not given)	5.1%	-0.79	i
COc1ccc2c(c1)c(C(=O)CN1CCN(C)CC1)c(C)n2Cc1ccccc1	7.0%	-1.3	i
CN(C)C(=O)NC(O)C(Cl)(Cl)Cl (stereo not given)	0.6%	.	i
CC(=O)Nc1ccc(S(=O)(=O)NC(CC(=O)N2CCC3(CC2)OCCO3)C(C)C)cc1 (stereo not given)	5.8%	0.63	i
Other compounds:
SMILES	Hsc70 ATP site	WNV NS2B-NS3 inh	MT1-MMP reporter
Cc1[nH]c2ccccc2c1CCN	-0.2%	.	i
OCCNc1c2c(nc3ccccc13)CCCC2	-1.2%	-0.55	i
CCCCOc1ccc(CN2CCN(CC)CC2)cc1	-0.2%	.	i
C=CCn1c(O)c(C(C)=NCCc2ccccc2)c(=O)[nH]c1=O	-1.4%	.	i
CCCC[n+]1cc(/N=C(\[O-])OC)on1	6.5%	-0.86	i
CCC(=NCCN1CCOCC1)c1c(O)n(-c2ccccc2C)c(=O)[nH]c1=O	0.3%	-0.29	i
COc1cc(Br)cc(CN2CCN(C)CC2)c1O	-2.0%	0.06	i
CC(C)n1cc(C(=O)N(CC(=O)NC(C)(C)C)Cc2ccccc2)cn1	0.7%	.	i
CCN(c1ccc(C(O)(C(=O)OC)C(F)(F)F)cc1)S(=O)(=O)c1ccc(C)cc1 (stereo not given)	5.4%	.	i
CCCCCCn1c(N)c(C(=O)NCCN2CCOCC2)c2nc3ccccc3nc21	4.9%	0.65	i

These rows are one share of the data. The share of hits here may be higher or lower than overall.
